Source: PubChem
Rango complex inh: qHTS Assay for Inhibitors of Rango (Ran-regulated importin-beta cargo) - Importin beta complex formation. Importin subunit beta-1 (Homo sapiens), Q14974. Potency, µM (highest dose often 92.2 µM), inactives show top-dose inhibition of complex formation. Rango CFP/YFP FRET sensor + importin beta, 45 min. hit rate 0.031% among 340,000; active = rising FRET ratio curve, often small or poorly fitted; inconclusive = mostly compound fluorescence or quenching in the first reads; inactive = flat curves in all reads;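 further: potency means the concentration at half of the fitted maximal effect; 0% = DMSO wells and 100% = buffer wells lacking importin beta; nearly all actives have a fitted effect of over 15% in size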
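FRET biosensor (snurportin 1 IBB flanked by EYFP and cerulean), 50 nM, with compound 5 min, then 0.125 microM importin beta in PBS, 1 mM DTT, 0.02% Tween-20, 0.1% BSA. CFP/YFP ratio read after 45 min at room temperature; pre-read flags interference.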
GLA inh pH 4.5: qHTS Assay for Inhibitors of Human alpha-Galactosidase at pH 4.5. Alpha-galactosidase A (Homo sapiens), P06280. purified enzyme, 4-MU-alpha-Gal fluorescence, pH 4.5. activity change, negative = inhibition, % at 105 µM. 230,000 tested, under 10 active. AID 1467, 2008; inconclusive = small, poorly fitted or top-dose-only inhibition, or a rising curve; inactive = flat fitted curve, though single readings scatter; no compound was filed as active;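 further: 0% = full activity with enzyme and -100% = basal without enzyme; dose as in the result columns while the protocol names 77 µM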
Target sequence (P06280 whole entry, looked up): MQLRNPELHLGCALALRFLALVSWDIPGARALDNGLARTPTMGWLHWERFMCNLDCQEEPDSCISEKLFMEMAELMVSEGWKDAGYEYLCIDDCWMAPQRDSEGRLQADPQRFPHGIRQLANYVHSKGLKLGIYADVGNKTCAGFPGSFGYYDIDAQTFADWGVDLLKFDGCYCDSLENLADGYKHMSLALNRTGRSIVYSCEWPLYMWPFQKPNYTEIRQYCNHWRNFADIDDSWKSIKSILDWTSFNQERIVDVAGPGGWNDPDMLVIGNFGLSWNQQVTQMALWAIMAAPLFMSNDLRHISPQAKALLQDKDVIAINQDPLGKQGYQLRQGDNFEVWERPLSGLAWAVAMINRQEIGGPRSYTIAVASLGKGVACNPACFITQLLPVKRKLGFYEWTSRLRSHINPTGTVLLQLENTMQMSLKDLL
miR-21 FLuc: qHTS Assay for Modulators of miRNAs and/orActivators of miR-21 | HeLa miR-21 FLuc reporter, luciferase, 48 h | Potency, µM (series often up to 38.3 µM), for the others: at the top dose reporter change, positive = more light | 340,000 tested, under 10 active | AID 2288, 2010; active = well fitted rising curve with a large enough effect; inconclusive = small, poorly fitted or top-dose-only effect; inactive = no such curve, though single readings can be large or run the other way;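 further: % of control where 0% means no effect; miR-21 action dims this reporter so a rising signal means less miR-21 action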
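HeLa cells stably expressing CMV-driven firefly luciferase with a downstream miR-21 binding sequence, endogenously expressing miR-21, were treated with titrations (up to about 40uM final) for 48 hours at 37 degree Celsius. Luciferase luminescence was read after lysis.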
Rango dissoc inh: qHTS Assay for Inhibitors of RanGTP induced Rango (Ran-regulated importin-beta cargo) - Importin beta complex dissociation; Snurportin-1 (Homo sapiens) + GTP-binding nuclear protein Ran (Homo sapiens) + Importin …; Biochemical FRET Rango-importin beta, RanGTP-induced dissociation; hit rate 0.071% among 340,000; Potency, µM (top dose mostly 46.1 µM), for inactives: top-dose activity change, negative = inhibition; active means falling FRET ratio curve, often poorly fitted, with flat reads before Ran was added; inconclusive means other falling curves, or compound fluorescence or quenching; inactive means flat or rising ratio curve;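 further: potency means the concentration at half of the fitted maximal effect; % of control where 0% means no effect; nearly all actives have a fitted effect of over 45% in size; -100% = wells without RanGTP and RCC1; the record marks most hits as doubtful in a second field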
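Compounds sat 5 min at room temperature with 0.1 uM Rango biosensor plus 0.25 uM importin beta, then FRET pre-read. RanGTP-RCC1 (0.6 uM Ran, 2mM GTP, 0.2 uM RCC1) added for 45 min, and the CFP/YFP post-read measured blocked complex dissociation.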
* = called active by the depositor; ? = inconclusive; . = not tested or not shown; [ ] = dose if it differs, or a comment. A portion of the library. The share of hits here may be higher or lower than overall.

SMILES	Rango complex inh	GLA inh pH 4.5	miR-21 FLuc	Rango dissoc inh
Cc1noc(C)c1NC(=O)N(C)C[C@H]1Oc2ccc(NS(=O)(=O)c3cn(C)cn3)cc2C(=O)N([C@H](C)CO)C[C@@H]1C	-2.9%	.	.	-11%
CC(=O)c1ccc(N2CCN(C(=O)Nc3ccc(F)cc3)CC2)cc1	.	0	-8%	.
Cc1ccc(N2CC(O)Cn3c2nc2c3c(=O)n(C)c(=O)n2C)cc1 (stereo unspecified)	0.3%	.	-4%	2%
O=C(NCc1cccc(F)c1)C1CCC(=O)N(CCc2cccc(F)c2)C1 (stereo unspecified)	-2.8%	.	-9%	0%
COc1cc(C(=O)N2CCN(C)C(C)C2)ccc1OC1CCN(C(C)=O)CC1 (stereo unspecified)	-0.7%	.	-6%	-2%
Cc1onc(CO)c1C(=O)Nc1nccs1	-1.2%	2	8%	-3%
Cc1ccc(S(=O)(=O)Cn2nnnc2C(CC(C)C)N2CCN(C3CCCC3)CC2)cc1 (stereo unspecified)	0.3%	.	0%	-14%
CCCOc1cccc(C2C(C(=O)c3ccco3)=C(O)C(=O)N2CCCn2ccnc2)c1 (stereo unspecified)	-0.3%	.	0%	25%
Cc1c(/C=N/NC(=O)c2cccnc2)c2ccccn2c1C(=O)c1ccc(F)cc1	.	-3	-4%	.
Cc1nn(-c2ccc(F)cc2F)c2c1-c1nc(N3CCCC3)ncc1CC2	-1.9%	-1	-26%	1%
Cc1ccc(C(=O)/C=C/Nc2cccc([N+](=O)[O-])c2)o1	1.5%	-18	-55%	-7%
O=C(C1=C(c2ccccc2)C(=O)c2ccccc2C1=O)c1ccccc1	1.7%	2	30%	2%
COC(=O)[C@@H]1C[C@@H](c2ccccc2)[C@H](C)C1(C)C	-3.5%	.	.	-5%
Cc1ccc(S(=O)(=O)/C(C#N)=C/c2ccccc2OCc2ccccc2)cc1	0.1%	-15	-10%	1%
O=C(CN1CCN(c2ccccc2)CC1)N1CCc2ccccc21	0.0%	.	-22%	21%
CC(=O)c1ccc(NC(=O)COC(=O)c2ccccc2N=Nc2ccc(N(C)C)cc2)cc1	-0.2%	0	-44%	4%
N#CCC(=O)NCC1(c2ccccc2)CCCC1	-1.5%	2	-2%	1%
COC(=O)c1sccc1NC(=O)C1CC2CCC1C2 (stereo unspecified)	-0.2%	-3	-3%	2%
CC1CCCN(C(=S)NC2CCCC2)C1 (stereo unspecified)	-4.2%	-22	-3%	7%
O=C1COc2ccc(-c3csc(NCC4CCCO4)n3)cc2N1 (stereo unspecified)	4.4%	1	-25%	-11%

Looked up by compound from above:
SMILES	Rango complex inh	GLA inh pH 4.5	miR-21 FLuc	Rango dissoc inh
Cc1c(/C=N/NC(=O)c2cccnc2)c2ccccn2c1C(=O)c1ccc(F)cc1	.	-3	-4%	.
O=C(NCc1cccc(F)c1)C1CCC(=O)N(CCc2cccc(F)c2)C1 (stereo unspecified)	-2.8%	.	-9%	0%
COc1cc(C(=O)N2CCN(C)C(C)C2)ccc1OC1CCN(C(C)=O)CC1 (stereo unspecified)	-0.7%	.	-6%	-2%
O=C(CN1CCN(c2ccccc2)CC1)N1CCc2ccccc21	0.0%	.	-22%	21%
Cc1ccc(S(=O)(=O)/C(C#N)=C/c2ccccc2OCc2ccccc2)cc1	0.1%	-15	-10%	1%
COC(=O)[C@@H]1C[C@@H](c2ccccc2)[C@H](C)C1(C)C	-3.5%	.	.	-5%

Going on with the list.
SMILES	Rango complex inh	GLA inh pH 4.5	miR-21 FLuc	Rango dissoc inh
N#Cc1ncc(C(F)(F)F)cc1Sc1ccccc1N	0.2%	2	-1%	-9%
CCSc1cc(N2CCCC2)nc(-c2cccc(C)c2)n1	-2.0%	-1	0%	-3%
COc1cc(CC(=O)NNC(=O)c2cccs2)cc(OC)c1OC	-1.7%	.	.	12%
CC(=O)Nc1ccc(NC(=O)Nc2ccccc2C)cc1	3.1%	3	-27%	4%
O=C1CC(c2cc(F)ccc2F)c2cc3c(cc2N1)CCC3 (stereo unspecified)	1.1%	1	27%	-10%
CCn1c(C)nc2cc(C(=O)NNC(=S)Nc3ccc(Cl)cc3)ccc21	0.4%	2	-28%	16%
O=C(COC(=O)c1ccccc1NC(=O)c1ccco1)NCc1ccc2c(c1)OCO2	-0.4%	-2	-2%	-4%
O=c1oc2ccc(C#CC3(O)CCCCC3)cc2cc1-n1cc(C2(O)CCCCC2)nn1	1.1%	.	.	15%
O=C(CCN1C(=O)COc2ccccc21)NCCC1=CCCCC1	-0.3%	-2	-5%	4%
CC(NC(=O)Cc1cccs1)c1ccc2c(c1)OCO2 (stereo unspecified)	-0.3%	-4	-2%	0%
COC(=O)CSC1=C(C#N)C(c2ccsc2)CC(=O)N1 (stereo unspecified)	0.7%	2	21%	-12%
CC(=O)Nc1ccc(S(=O)(=O)NCc2nc(-c3ccc(C)cc3)no2)cc1	4.3%	.	-2%	-17%
O=C(OCC(=O)c1cccs1)c1cccc(C(=O)OCC(=O)c2cccs2)n1	-0.4%	-9	-2%	-9%
CCCCNC(=O)O/N=C(\N)CS(=O)(=O)C(C)(C)C	-0.2%	-11	-6%	-10%
CCOc1ccc(C(=O)NNC(=O)c2cc(S(=O)(=O)N3CCOCC3)ccc2Cl)cc1	0.5%	.	.	-5%
COc1ccc(CNC(=O)CN(Cc2ccc(F)cc2)C(=O)CCC(=O)Nc2nccs2)cc1	-0.1%	.	14%	-11%
COc1ccccc1/C=N/NC(=O)CC(=O)Nc1ccc(Cl)c(Cl)c1	-0.4%	-1	-2%	-21%
CCn1nnc2cc(C(=O)NCC(c3ccccc3OC)N(C)C)ccc21 (stereo unspecified)	-5.1%	.	-8%	11%
COc1ccc(OC)c(S(=O)(=O)N2CCCC(N3CCN(c4ccccc4)CC3)C2)c1 (stereo unspecified)	-1.8%	.	0%	-4%
O=C(COC(=O)c1cc(=O)[nH]c2ccccc12)Nc1nc(-c2ccc(F)cc2)cs1	0.5%	.	.	-3%
O=C(NCCO)c1ccc2c(c1)S(=O)(=O)c1ccccc1C2=O	2.0%	-13	-9%	-15%
CC(=O)O/N=C/c1c(Cl)n(C)c2ccccc12	5.7%	-4	-7%	22%
Cc1ccc(C)c(S(=O)(=O)Nc2ccc(C(=O)NCCc3ccccn3)cc2)c1	3.3%	3	2%	0%
COc1ccc(OC)c(-c2cc(C(=O)Nc3ccccc3C(N)=O)c3ccccc3n2)c1	0.0%	.	.	5%
O=C(C1=C(O)C(=O)N(CC2CCCO2)C1c1ccccc1)c1ccco1 (stereo unspecified)	-4.1%	.	2%	8%
CC(C)(C)c1ccc(C(=O)NC(=S)NCc2cccnc2)cc1	-0.5%	3	6%	0%
COc1ccccc1CNC(=O)/C=C/c1cc2c(cc1Br)OCO2	3.2%	2	1%	2%
Cc1ccc(N2CCN(/N=C/c3ccccc3)CC2)cc1	-0.1%	-2	-1%	0%
Cc1cc(NC(=O)CCN2C(=O)C3C4C=CC(C4)C3C2=O)ccc1Br (stereo unspecified)	0.1%	-6	2%	11%
CSCC[C@H](NC(=O)OC(C)(C)C)C(=O)N1CCC(C(=O)N[C@H](C(=O)O)C(C)C)CC1	-0.2%	4	-2%	17%
OCCSc1nnc(Nc2ccccc2)s1	-1.1%	-1	-36%	1%
Cn1c2ccccc2c2cc(C(=O)N3CCOCC3)sc21	1.0%	-21	-37%	-11%
CCCCc1nnc(NC(=O)CSc2nc(=O)cc(N)n2-c2ccccc2)s1	-1.9%	5	-9%	1%
O=C(CSc1nncn1-c1ccccc1)Nc1c(F)cccc1F	-2.1%	.	-1%	-6%
COc1cccc(CCNC(=O)CC2C(=O)NCCN2Cc2ccc(Cl)c(F)c2)c1 (stereo unspecified)	-0.3%	5	-4%	-3%
COc1ccc(NC(=S)N2CCC(NC(=O)C3CCCCC3)CC2)cc1	-0.8%	.	2%	1%
COc1cccc(C(=O)/C=C/Nc2cccc(O)c2)c1	?	4	27%	?
Cc1cc(Br)ccc1OCc1nnc(-c2ccccc2)o1	0.2%	.	.	-4%
Cc1nc(-c2ccccc2)sc1C(=O)/C=C/c1ccccc1	-0.8%	-3	-34%	-5%
CCC(C(=O)Nc1nccs1)c1ccccc1 (stereo unspecified)	1.5%	1	3%	-16%
COc1ccccc1N1C(N)=NC(N)=NC1(C)C	-0.2%	-3	-4%	-2%
Cc1ccc(Cn2c(=N)c(C#N)cc3c(=O)n4cccc(C)c4nc32)cc1	.	-14	-1%	.
Cc1cc(=O)[nH]c(SCc2cc(=O)n3nc(C)sc3n2)n1	-0.2%	-1	1%	-16%
COc1ccc(S(=O)(=O)N2CCC(C(=O)Nc3c(F)cccc3F)CC2)cc1	-4.0%	-5	-7%	-6%
Cc1cccc(C(=O)N2CCN(C(=O)c3cccc(C)c3)C(C)C2)c1 (stereo unspecified)	?	-2	1%	18%
COc1ccccc1C(=O)N(Cc1ccco1)C1CCS(=O)(=O)C1 (stereo unspecified)	-0.1%	1	-2%	4%
CCC(C)(C)n1nnnc1C(c1ccccc1)N1CCN(Cc2ccccc2)CC1 (stereo unspecified)	-0.6%	-1	0%	8%
CCC(=O)N(c1nnc(SCC(=O)Nc2ccc(N3CCOCC3)cc2)s1)C1CC1	2.6%	.	.	2%
Cn1cccc1CC(=O)NNC(=O)Nc1ccc(F)cc1	-0.8%	9	-11%	-9%
O=C(CNC(=O)c1ccc(Br)o1)NCCc1ccc(F)cc1	-0.9%	.	4%	-8%
Nc1ccc(-n2nncc2-c2ccc(Cl)cc2)cc1	1.2%	2	-14%	-23%
CN(C)S(=O)(=O)c1ccc(C(=O)OC2CCOC2=O)cc1 (stereo unspecified)	-0.3%	.	2%	0%
Cc1ccc(S(=O)(=O)CCC(=O)OCC(=O)NCCc2ccc(S(N)(=O)=O)cc2)cc1	-2.1%	.	.	-7%
Cn1nnnc1SCc1nc2ccccc2[nH]1	8.4%	3	-31%	10%
CC(=O)Nc1ccc(S(=O)(=O)N(C)c2ccc(OCC(=O)OCC(=O)Nc3ccc(OC(F)F)cc3)cc2)cc1	-3.5%	-9	-2%	6%
C/C(=N\NC(=O)CNC(=O)C(c1ccccc1)c1ccccc1)c1ccccc1	0.3%	4	-2%	0%
CCCCCC(=O)NC(Cc1ccc(OC)c([N+](=O)[O-])c1)C(=O)O (stereo unspecified)	0.4%	2[21.1 µM]	2%	14%
COC(=O)C1CC(c2ccc(Cl)cc2)=NO1 (stereo unspecified)	0.3%	6	-1%	-1%
CCCCN(C)C(=O)c1ccc2c(c1)N(CC)C(=O)c1ccccc1S2=O (stereo unspecified)	-1.7%	.	-9%	?
CN(C)c1ccnc(Oc2ccc(Cl)cc2)c1C#N	0.0%	?	-42%	1%

Next section.
SMILES	Rango complex inh	GLA inh pH 4.5	miR-21 FLuc	Rango dissoc inh
COc1ccc(-c2csc3ncnc(N4CCN(S(=O)(=O)c5cccc(Br)c5)CC4)c23)cc1	1.2%	.	.	-10%
Cc1cc(C)cc(Oc2ccccc2/C=N\O)c1	-1.6%	-19	-2%	-15%
COc1ccccc1N1CCN(C(=O)COc2ccc(C)cc2Br)CC1	0.0%	-4	-14%	14%
CCOc1ccc(NC(=O)C2C3CC/C=C\CCC32)cc1 (stereo unspecified)	0.9%	5	-28%	1%
CCC1(c2ccccc2)NC(=O)N(Cc2ccc(C(=O)OC)cc2)C1=O (stereo unspecified)	-2.3%	-9	18%	2%
O=C(Nc1nc2cc3c(cc2s1)OCCO3)c1cccc(S(=O)(=O)N2CCOCC2)c1	.	1	13%	.
Cc1onc(-c2c(F)cccc2Cl)c1C(=O)NCc1ccc2c(c1)OCO2	-1.1%	.	-8%	-9%
O=C(CN1CCN(C(=O)c2ccco2)CC1)Nc1cccc([N+](=O)[O-])c1	2.8%	7	1%	29%
